mut p53 SMM: binders of human mutant p53, primary screen, biochemical, small molecule microarray, anti-GST fluorescence. mutant tumor protein p53 (GST-tagged), Homo sapiens. small molecule microarray binding. calls only. 0.4% of 17,000 active. AID 624136, 2012;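 active = compounds whose four printed spots each glow above background more than chance allows, each with a p-value under 7%; compounds were printed on slides so no solution concentration is given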;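 also: about 2 pmol printed per array spot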
c-Myc SMM: binders of human c-Myc, primary screen, biochemical, small molecule microarray, anti-His fluorescence | 1.5% of 17,000 active | calls only | His-c-Myc binding;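 active = spot fluorescence over background with P-value below 7% in all four replicate spots, showing protein binding; compounds were printed on slides so no solution concentration is given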;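 also: score is binary with 100 for all four spots passing and 0 otherwise; about 2 pmol printed per array spot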
Target sequence (P01106 whole entry, looked up): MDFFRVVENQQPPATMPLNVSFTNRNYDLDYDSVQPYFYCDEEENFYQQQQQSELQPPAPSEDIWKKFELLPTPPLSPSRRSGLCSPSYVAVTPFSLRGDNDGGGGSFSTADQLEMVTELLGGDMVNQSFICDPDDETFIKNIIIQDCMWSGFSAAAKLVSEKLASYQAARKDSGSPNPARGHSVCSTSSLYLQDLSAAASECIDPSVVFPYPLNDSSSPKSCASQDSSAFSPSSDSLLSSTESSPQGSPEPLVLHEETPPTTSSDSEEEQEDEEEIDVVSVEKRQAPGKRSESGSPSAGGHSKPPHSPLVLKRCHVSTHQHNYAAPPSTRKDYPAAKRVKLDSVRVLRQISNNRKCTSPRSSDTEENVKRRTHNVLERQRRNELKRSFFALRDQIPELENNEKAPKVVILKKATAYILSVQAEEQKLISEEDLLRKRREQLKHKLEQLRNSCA
STAT3 SMM: STAT3 binders, primary screen, biochemical, small molecule microarray, single point, set 2; Signal transducer and activator of transcription 3 (Homo sapiens), P40763; His-STAT3 binding, anti-His fluorescence; calls only; 0.2% of 17,000 active; AID 624138, 2012;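 active = compounds whose four printed spots each show fluorescence over background unusually high for their array block, chance value under 7%; compounds were printed on slides so no solution concentration is given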;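 also: about 2 pmol printed per array spot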
ID4 binder: binders of human ID4 protein, primary screen, biochemical, small molecule microarray, single point. DNA-binding protein inhibitor ID-4 (Homo sapiens), P47928. Flag-ID4 binding, fluorescence F/B. calls only. 1.2% of 31,000 active. AID 624137, 2012;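 active = spot signal over background at p below 0.07 in all four prints; compounds were printed on slides so no solution concentration is given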;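 also: a binder raises fluorescence above local background on the spot; about 2 pmol printed per array spot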
Target sequence (P47928 whole entry, looked up): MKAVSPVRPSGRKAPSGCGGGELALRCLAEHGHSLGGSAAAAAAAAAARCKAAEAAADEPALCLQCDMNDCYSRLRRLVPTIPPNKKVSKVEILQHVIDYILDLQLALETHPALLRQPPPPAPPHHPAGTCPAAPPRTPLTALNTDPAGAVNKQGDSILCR
Calls only. Some of the compounds tested; rates above refer to the full screens.

Screening C[C@H](CO)N1C[C@H](C)[C@@H](CN(C)S(C)(=O)=O)Oc2ccc(NS(C)(=O)=O)cc2C1=O returned mut p53 SMM inactive, c-Myc SMM inactive and STAT3 SMM inactive.
`C=CCNC(=O)[C@H]1[C@@H]2C(=O)O[C@@H](c3ccccc3)[C@@H](c3ccccc3)N2[C@@H](c2ccc(O)cc2)[C@]12C(=O)Nc1ccc(C#CCC(C(=O)OC)C(=O)OC)cc12` gave mut p53 SMM inactive, c-Myc SMM inactive, STAT3 SMM inactive and ID4 binder inactive.
Screening C[C@@H]1CCCCO[C@@H](CN(C)C(=O)Cc2ccccc2)[C@@H](C)CN([C@H](C)CO)C(=O)c2cc(NC(=O)Nc3ccc(F)cc3)ccc2O1 returned mut p53 SMM inactive, c-Myc SMM inactive, STAT3 SMM inactive and ID4 binder inactive.
For C[C@H]1CN([C@@H](C)CO)C(=O)c2cccc(NS(C)(=O)=O)c2O[C@@H]1CN(C)Cc1ccc(C(F)(F)F)cc1 the results were mut p53 SMM inactive, c-Myc SMM inactive, STAT3 SMM inactive and ID4 binder inactive.
`CN(CC(=O)O)S(=O)(=O)c1cccc2cccc(Cl)c12` gave mut p53 SMM inactive, c-Myc SMM inactive, STAT3 SMM inactive and ID4 binder inactive.
`C[C@@H]1CCCCO[C@H](CN(C)S(=O)(=O)c2cccs2)[C@@H](C)CN([C@@H](C)CO)C(=O)c2cc(NC(=O)Cc3ccccc3)ccc2O1` gave mut p53 SMM inactive, c-Myc SMM inactive, STAT3 SMM inactive and ID4 binder inactive.
Cc1ccc(OCC(=O)NC(=S)Nc2cc(C(=O)O)ccc2C)cc1 was read as mut p53 SMM inactive, c-Myc SMM inactive, STAT3 SMM inactive and ID4 binder inactive.
Screening Cc1c(-c2ccc(Cl)cc2Cl)nc2ccccc2c1C(=O)NCc1ccccn1 returned mut p53 SMM inactive, c-Myc SMM inactive, STAT3 SMM inactive and ID4 binder inactive.
Screening COc1ccc(S(=O)(=O)Nc2ccc3c(c2)CC(=O)N([C@H](C)CO)C[C@H](C)[C@H](CN(C)CC2CC2)O3)cc1 returned mut p53 SMM inactive, c-Myc SMM inactive, STAT3 SMM inactive and ID4 binder inactive.
For C[C@H](CO)N1C[C@H](C)[C@H](CN(C)C(=O)Nc2ccc(F)cc2)Oc2ccc(NS(=O)(=O)c3ccc(Cl)cc3)cc2CC1=O the results were mut p53 SMM inactive, c-Myc SMM inactive, STAT3 SMM inactive and ID4 binder inactive.
For CNC[C@@H]1Oc2ccc(NS(=O)(=O)c3cccs3)cc2CC(=O)N([C@@H](C)CO)C[C@H]1C the results were mut p53 SMM inactive, c-Myc SMM inactive, STAT3 SMM inactive and ID4 binder inactive.
For C[C@@H]1CCCCO[C@H](CN(C)C(=O)c2ccccc2)[C@H](C)CN([C@H](C)CO)C(=O)c2cc(NS(=O)(=O)c3cn(C)cn3)ccc2O1 the results were mut p53 SMM inactive, c-Myc SMM inactive, STAT3 SMM inactive and ID4 binder inactive.
Screening CC(C)NC(=O)N(C)C[C@H]1OCCCC[C@H](C)Oc2ccc(N(C)C)cc2C(=O)N([C@@H](C)CO)C[C@@H]1C returned mut p53 SMM inactive, c-Myc SMM inactive, STAT3 SMM inactive and ID4 binder inactive.
`Cc1ccc(S(=O)(=O)N(Cc2cc3cccc(C)c3[nH]c2=O)c2ccccc2)cc1` gave mut p53 SMM inactive, c-Myc SMM inactive, STAT3 SMM inactive and ID4 binder inactive.
Screening CCC(=O)NC(c1ccccc1OC)c1c(O)ccc2ccccc12 (stereo not drawn) returned mut p53 SMM inactive, c-Myc SMM inactive, STAT3 SMM inactive and ID4 binder inactive.
`C[C@H](CO)N1C[C@H](C)[C@@H](CN(C)S(=O)(=O)c2ccccc2)Oc2ccc(NC(=O)c3ccncc3)cc2CC1=O` gave mut p53 SMM inactive, c-Myc SMM inactive, STAT3 SMM inactive and ID4 binder inactive.
Screening COc1ccc(-c2cc(C(F)F)n3ncc(C(=O)Nc4cccc(S(=O)(=O)N5CCOCC5)c4)c3n2)cc1 returned mut p53 SMM inactive, c-Myc SMM inactive, STAT3 SMM inactive and ID4 binder inactive.
C[C@@H]1CN([C@@H](C)CO)C(=O)c2cc(NC(=O)Cc3cn(C)c4ccccc34)ccc2O[C@@H]1CN(C)C(=O)NC1CCCCC1 was read as mut p53 SMM inactive, c-Myc SMM inactive, STAT3 SMM inactive and ID4 binder inactive.
COCCCNC(=O)[C@@]1(C)c2ccccc2C(=O)N(Cc2ccc(OC(F)(F)F)cc2)[C@H]1c1ccc(CO)cc1 was read as mut p53 SMM inactive, c-Myc SMM inactive, STAT3 SMM inactive and ID4 binder inactive.
For C[C@@H]1CN([C@@H](C)CO)C(=O)c2cccc(NC(=O)C3CCOCC3)c2O[C@@H]1CN(C)C(=O)Nc1ccc(F)cc1 the results were mut p53 SMM inactive, c-Myc SMM inactive, STAT3 SMM inactive and ID4 binder inactive.
C[C@@H]1CN([C@@H](C)CO)C(=O)Cc2cc(NC(=O)Cn3cnnn3)ccc2O[C@@H]1CN(C)S(=O)(=O)c1ccccc1 was read as mut p53 SMM inactive, c-Myc SMM inactive, STAT3 SMM inactive and ID4 binder inactive.
`C[C@@H]1CCCCO[C@H](CN(C)C(=O)Nc2ccc(F)cc2)[C@H](C)CN([C@@H](C)CO)C(=O)c2cc(NS(=O)(=O)c3ccccc3)ccc2O1` gave mut p53 SMM inactive, c-Myc SMM inactive, STAT3 SMM inactive and ID4 binder inactive.
Screening C[C@H]1CN([C@@H](C)CO)C(=O)CCCn2cc(nn2)CO[C@@H]1CN(C)C returned mut p53 SMM inactive, c-Myc SMM inactive, STAT3 SMM inactive and ID4 binder inactive.
`CC(C)NC(=O)N(C)C[C@@H]1OCCCC[C@@H](C)Oc2ccc(NC(=O)Cc3ccccc3)cc2C(=O)N([C@@H](C)CO)C[C@@H]1C` gave mut p53 SMM inactive, c-Myc SMM inactive, STAT3 SMM inactive and ID4 binder inactive.
For C[C@@H]1CN([C@H](C)CO)C(=O)Cc2cc(NC(=O)Cc3ccccc3)ccc2O[C@@H]1CN(C)S(=O)(=O)c1cccs1 the results were mut p53 SMM inactive, c-Myc SMM inactive, STAT3 SMM inactive and ID4 binder inactive.
`C[C@H](CO)N1C[C@H](C)[C@H](CN(C)C(=O)Nc2ccccc2)Oc2ccc(NC(=O)CCN3CCOCC3)cc2C1=O` gave mut p53 SMM inactive, c-Myc SMM inactive, STAT3 SMM inactive and ID4 binder inactive.
Screening Cc1cccc(-n2c(N)cc(=O)nc2SCC(=O)N2c3ccccc3Sc3ccccc32)c1 returned mut p53 SMM inactive, c-Myc SMM inactive, STAT3 SMM inactive and ID4 binder inactive.
`C[C@H](CO)N1C[C@H](C)[C@@H](CN(C)S(=O)(=O)c2cn(C)cn2)Oc2ccc(NC(=O)NC3CCCCC3)cc2CC1=O` gave mut p53 SMM inactive, c-Myc SMM inactive, STAT3 SMM inactive and ID4 binder inactive.
`O=c1cc(-c2ccc(O)cc2)oc2c(C3OC(CO)C(O)C(O)C3O)c(O)c(C3OCC(O)C(O)C3O)c(O)c12` (stereo not drawn) gave mut p53 SMM inactive, c-Myc SMM inactive, STAT3 SMM inactive and ID4 binder inactive.
`C[C@H](CO)N1C[C@H](C)[C@@H](CN(C)C(=O)Nc2ccc(C(F)(F)F)cc2)Oc2c(NS(C)(=O)=O)cccc2C1=O` gave mut p53 SMM inactive, c-Myc SMM inactive, STAT3 SMM inactive and ID4 binder inactive.
Cc1noc(C)c1NC(=O)Nc1ccc2c(c1)C(=O)N([C@H](C)CO)C[C@@H](C)[C@@H](CN(C)C(=O)Nc1c(C)noc1C)OCCCC[C@@H](C)O2 was read as mut p53 SMM inactive, c-Myc SMM inactive, STAT3 SMM inactive and ID4 binder inactive.
`C[C@H](CO)N1C[C@H](C)[C@H](CN(C)C(=O)NC2CCCCC2)Oc2ccc(NC(=O)c3ccncc3)cc2CC1=O` gave mut p53 SMM inactive, c-Myc SMM inactive, STAT3 SMM inactive and ID4 binder inactive.
`C=CCOC(=O)[C@@H]1[C@H]2C(=O)O[C@H](c3ccccc3)[C@H](c3ccccc3)N2[C@H](c2ccc(OCCOC(=O)[C@H]3C[C@H]4C(=O)N5CCC[C@H]5C(=O)N4[C@H]3c3ccc(O)cc3)cc2)[C@@]12C(=O)Nc1ccccc12` gave mut p53 SMM inactive, c-Myc SMM inactive, STAT3 SMM inactive and ID4 binder inactive.
CNC(=O)CN(c1cccc2ccccc12)S(C)(=O)=O was read as mut p53 SMM inactive, c-Myc SMM inactive, STAT3 SMM inactive and ID4 binder inactive.
Cc1cc(=O)[nH]c(SCC(=O)Nc2ccccc2)n1 was read as mut p53 SMM inactive, c-Myc SMM inactive, STAT3 SMM inactive and ID4 binder inactive.
`C[C@@H]1CN([C@H](C)CO)C(=O)c2cc(NC(=O)C3CCCCC3)ccc2O[C@@H]1CN(C)Cc1ccc2c(c1)OCO2` gave mut p53 SMM inactive, c-Myc SMM inactive and STAT3 SMM inactive.
Screening Nc1nonc1C(=O)NCCNCc1ccc(F)cc1 returned mut p53 SMM inactive, c-Myc SMM inactive, STAT3 SMM inactive and ID4 binder inactive.
CC1CC(=O)[C@]2(C)CC[C@]3(C)C(C(=O)C(O)C4[C@@]5(C)CC[C@H](O)C(C)(C(=O)O)C5CC[C@]43C)C2C1C (stereo partly drawn) was read as mut p53 SMM inactive, c-Myc SMM inactive and STAT3 SMM inactive.
For Cc1ccc(-c2nnc3c4ccccc4c(C)nn23)cc1S(=O)(=O)NC(C)c1ccccc1 (stereo not drawn) the results were mut p53 SMM inactive, c-Myc SMM inactive, STAT3 SMM inactive and ID4 binder inactive.
`COc1ccc(COC[C@@]23Oc4ccccc4[C@@H](NC(=S)N2C)[C@H]3CO[Si](C)(C)C(C)(C)C)cc1` gave mut p53 SMM inactive, c-Myc SMM inactive, STAT3 SMM inactive and ID4 binder inactive.

As a working copy, some entries already given:
CC1CC(=O)[C@]2(C)CC[C@]3(C)C(C(=O)C(O)C4[C@@]5(C)CC[C@H](O)C(C)(C(=O)O)C5CC[C@]43C)C2C1C (stereo partly drawn) was read as mut p53 SMM inactive, c-Myc SMM inactive and STAT3 SMM inactive.
For Cc1ccc(-c2nnc3c4ccccc4c(C)nn23)cc1S(=O)(=O)NC(C)c1ccccc1 (stereo not drawn) the results were mut p53 SMM inactive, c-Myc SMM inactive, STAT3 SMM inactive and ID4 binder inactive.
`COc1ccc(COC[C@@]23Oc4ccccc4[C@@H](NC(=S)N2C)[C@H]3CO[Si](C)(C)C(C)(C)C)cc1` gave mut p53 SMM inactive, c-Myc SMM inactive, STAT3 SMM inactive and ID4 binder inactive.

(listing goes on)
For C[C@@H]1CN([C@@H](C)CO)C(=O)CCCn2cc(nn2)CO[C@@H]1CN(C)S(=O)(=O)c1cccs1 the results were mut p53 SMM inactive, c-Myc SMM inactive, STAT3 SMM inactive and ID4 binder inactive.
`C[C@@H]1CCCCO[C@H](CN(C)CC2CC2)[C@@H](C)CN([C@H](C)CO)C(=O)c2cc(NC(=O)Nc3cccc4ccccc34)ccc2O1` gave mut p53 SMM inactive, c-Myc SMM inactive and STAT3 SMM inactive.
For C[C@@H]1CN([C@H](C)CO)C(=O)c2cc(NC(=O)CCN3CCOCC3)ccc2O[C@H]1CN(C)C(=O)Nc1ccccc1 the results were mut p53 SMM inactive, c-Myc SMM inactive, STAT3 SMM inactive and ID4 binder inactive.
C[C@H]1CN([C@@H](C)CO)C(=O)CCCn2nncc2CO[C@H]1CN(C)Cc1ccc(Oc2ccccc2)cc1 was read as mut p53 SMM inactive, c-Myc SMM inactive, STAT3 SMM inactive and ID4 binder inactive.
`NC(=O)[C@@H]1[C@H]2C(=O)O[C@H](c3ccccc3)[C@H](c3ccccc3)N2[C@H](c2ccccc2OCCO)[C@@]12C(=O)Nc1ccc(C#CC3=CCCCC3)cc12` gave mut p53 SMM inactive, c-Myc SMM inactive and STAT3 SMM inactive.
`COc1ccccc1CN1C(=O)c2ccccc2[C@@]2(Cc3ccccc3N(CCCN(C)C)C2=O)[C@@H]1c1ccc(CO)cc1` gave mut p53 SMM inactive, c-Myc SMM inactive, STAT3 SMM inactive and ID4 binder inactive.
`C[C@H](CO)N1C[C@H](C)[C@H](CN(C)C(=O)NC2CCCCC2)OCCCC[C@H](C)Oc2ccc(NC(=O)Cc3ccccc3)cc2C1=O` gave mut p53 SMM inactive, c-Myc SMM inactive and STAT3 SMM inactive.
For CS(=O)(=O)N(CC(=O)Nc1cc(C(F)(F)F)ccc1Cl)c1ccccc1 the results were mut p53 SMM inactive, c-Myc SMM inactive, STAT3 SMM inactive and ID4 binder inactive.
C[C@H]1CN([C@@H](C)CO)C(=O)c2cccc(NS(C)(=O)=O)c2O[C@H]1CN(C)Cc1ccc(Cl)c(Cl)c1 was read as mut p53 SMM inactive, c-Myc SMM inactive, STAT3 SMM inactive and ID4 binder inactive.
Screening COc1ccc(S(=O)(=O)N(C)C[C@@H]2Oc3ccc(NC(=O)CCC(F)(F)F)cc3C(=O)N([C@H](C)CO)C[C@@H]2C)cc1 returned mut p53 SMM inactive, c-Myc SMM inactive, STAT3 SMM inactive and ID4 binder inactive.
For C[C@@H]1CN([C@H](C)CO)C(=O)c2cccc(NS(C)(=O)=O)c2O[C@H]1CN(C)CC1CC1 the results were mut p53 SMM inactive, c-Myc SMM inactive, STAT3 SMM inactive and ID4 binder inactive.
